# KCNQ2 enhance: enhances the rat KCNQ2 potassium channel. O88943. CHO-K1 KCNQ2, FluxOR thallium flux fluorescence; stronger effect = higher value. 0.54% of 310,000 active. AID 2239. B-score at 10 µM;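 active means fluorescence ratio B-score at least 3 SD of library B-scores, with initial fluorescence B-score within 3 SD, cut at about 5.3 in these data; same plate scores as AID 2156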;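 further: B-score of peak minus minimum over baseline fluorescence ratio after K+ and Tl+ stimulus; positive B-score means potentiation of KCNQ2 with more thallium influx and brighter signal; only the inactives scoring about 0 or higher are listed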
# Target sequence (O88943 whole entry, looked up): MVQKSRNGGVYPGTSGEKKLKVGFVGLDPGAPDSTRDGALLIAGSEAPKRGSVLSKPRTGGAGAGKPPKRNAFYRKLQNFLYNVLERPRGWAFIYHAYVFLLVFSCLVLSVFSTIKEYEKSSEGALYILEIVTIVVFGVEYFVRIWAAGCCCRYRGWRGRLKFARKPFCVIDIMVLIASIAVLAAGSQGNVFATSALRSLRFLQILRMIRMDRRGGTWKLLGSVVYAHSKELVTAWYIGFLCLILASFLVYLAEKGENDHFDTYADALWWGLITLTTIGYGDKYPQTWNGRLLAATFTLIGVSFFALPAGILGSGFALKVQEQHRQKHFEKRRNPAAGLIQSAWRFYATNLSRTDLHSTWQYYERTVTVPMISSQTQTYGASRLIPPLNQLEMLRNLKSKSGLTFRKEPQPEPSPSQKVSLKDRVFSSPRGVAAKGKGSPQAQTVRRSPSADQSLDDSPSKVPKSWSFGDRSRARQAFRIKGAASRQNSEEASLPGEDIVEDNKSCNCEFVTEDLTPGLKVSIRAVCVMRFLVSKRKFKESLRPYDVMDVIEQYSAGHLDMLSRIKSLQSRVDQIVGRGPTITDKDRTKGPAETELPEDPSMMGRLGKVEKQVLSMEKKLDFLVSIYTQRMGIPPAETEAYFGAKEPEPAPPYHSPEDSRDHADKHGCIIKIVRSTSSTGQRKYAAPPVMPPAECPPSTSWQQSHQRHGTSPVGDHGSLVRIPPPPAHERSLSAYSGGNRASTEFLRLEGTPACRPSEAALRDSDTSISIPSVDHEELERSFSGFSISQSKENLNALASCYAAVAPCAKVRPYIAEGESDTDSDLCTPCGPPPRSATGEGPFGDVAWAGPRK
# KCNQ2 enhance baseline: also measured in KCNQ2 enhance; calls as there; B-score; compound at 10 µM; measured here: initial fluorescence intensity artifact check;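 brightness before thallium and not channel activity; 0 = typical well and far values either way flag optical interference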
# An asterisk follows results filed as active.
# Second line of a record – KCNQ2 enhance	KCNQ2 enhance baseline
CCCCn1c(=O)[nH]c(=O)c2c1nc(-c1ccc(C#N)cc1)n2C1CCCC1
 : 0.59	-0.08
O=C(Cc1ccsc1)Nc1ccc(S(=O)(=O)C(F)F)cc1
 : 0.33	-1.6
COc1ccc(CCN2CC(C(=O)NCC3(O)CCCCC3)CCC2=O)cc1 (stereo not given)
 : 0.01	1.3
COc1ccc(NC(=O)C(c2ccc(C)cc2)N(C)C(=O)c2ccc(=O)[nH]c2)cc1 (stereo not given)
 : 0.13	0.43
O=C(Cc1cccs1)Nc1nc2ccccc2s1
 : 0.73	-1.2
O=C(CCN1C(=O)c2cccc3cccc(c23)C1=O)N1CCN(c2ccccc2F)CC1
 : 0.23	3.1
COC(=O)C1=C(C)OC(N)=C(C#N)C1c1c(C)nn(-c2ccccc2)c1Cl (stereo not given)
 : 0.01	-1.6
Oc1ccc(CN2CCN(c3ccccc3)CC2)c2cccnc12
 : 0.14	0.53
COc1ccc(OC)c(C(=O)c2ccc(C(=O)Nc3ccc4ccccc4c3)cc2)c1
 : 1.7	-0.25
Clc1ccc(-c2nnc3n2-c2ccccc2SC3)cc1
 : 0.91	-1
N#Cc1c(-c2cccs2)nc(SCC(=O)c2cccs2)[nH]c1=O
 : 2.3	-0.51
Cc1cc(C)c(C(N)=O)c(NC(=O)Nc2ccccc2Cl)n1
 : 0.55	-0.58
Cc1cc([N+](=O)[O-])ccc1NCc1cccc([N+](=O)[O-])c1
 : 0.79	-2.2
O=S(=O)(Nc1ccc(S(=O)(=O)N2CCCC2)cc1)c1ccc(F)cc1
 : 1.7	1.5
Cc1cccc(C(=O)NC2CCN(CC(=O)NCc3cccs3)CC2)c1
 : 0.07	-1
CC(C)N(CC(N)=O)C(=O)Cc1coc2cc3c(cc12)CCC3
 : 0.43	2.8
N#CCCN(/N=C/c1cccnc1)C1=NS(=O)(=O)c2ccccc21
 : 0.87	0.24
COC(=O)c1cn(-c2ccccc2)c(C)c1C(=O)OC
 : 0.29	-0.52
NC(=O)N/N=C/c1ccc(-c2ccc([N+](=O)[O-])cc2)o1
 : 1.1	-1.9
CCOC(=O)c1c(C)oc2cc(Cl)c(O)c(CN(C)C)c12
 : 1	0.95
Cc1cc(C(=O)Nc2sc3c(c2C#N)CCC(C(C)(C)C)C3)no1 (stereo not given)
 : 2.1	0.35
COc1ccc(CCNS(=O)(=O)c2ccc3c(c2)CC(C)N3C(C)=O)cc1OC (stereo not given)
 : 0.87	-1.9
O=C1[C@@H]2C(c3ccccc3Cl)=NO[C@@H]2C(=O)N1Cc1ccccc1
 : 0.04	-1.3
CC1CCCCN1Cc1nc2ccccc2c(=O)[nH]1 (stereo not given)
 : 0.2	-2.9
COc1ccc(CC(=O)NC(C)c2nnc(SCC(=O)Nc3cc(C)ccc3OC)n2C)cc1 (stereo not given)
 : 1.7	-1.1
O=C(NC1CCS(=O)(=O)C1)/C(=C/c1ccc(Cl)cc1)NC(=O)c1ccccc1 (stereo not given)
 : 0.07	-0.03
Cc1oncc1C(=O)Nc1cccc(C#N)c1
 : 0.02	-1.1
CCNC(=S)N1CCN(c2ncccn2)CC1
 : 0.78	-0.04
Cc1ccc(NC2=NC(c3ccc(C)cc3)n3c(nc(C)cc3=O)N2)cc1 (stereo not given)
 : 0.19	-0.72
O=C(Nn1cnnc1)C1CCCN1S(=O)(=O)c1ccc(F)cc1 (stereo not given)
 : 1.5	-2.2

# 6 entries from above, sorted by the value under KCNQ2 enhance baseline, smallest number first:
# Second line of a record – KCNQ2 enhance	KCNQ2 enhance baseline
O=C(Nn1cnnc1)C1CCCN1S(=O)(=O)c1ccc(F)cc1 (stereo not given)
 : 1.5	-2.2
COc1ccc(CCNS(=O)(=O)c2ccc3c(c2)CC(C)N3C(C)=O)cc1OC (stereo not given)
 : 0.87	-1.9
O=C(Cc1cccs1)Nc1nc2ccccc2s1
 : 0.73	-1.2
Cc1cccc(C(=O)NC2CCN(CC(=O)NCc3cccs3)CC2)c1
 : 0.07	-1
CCCCn1c(=O)[nH]c(=O)c2c1nc(-c1ccc(C#N)cc1)n2C1CCCC1
 : 0.59	-0.08
CC(C)N(CC(N)=O)C(=O)Cc1coc2cc3c(cc12)CCC3
 : 0.43	2.8

# Carrying on.
# Second line of a record – KCNQ2 enhance	KCNQ2 enhance baseline
O=c1c2cc(Cl)ccc2nc(-c2ccccc2)n1O
 : 6.5*	0.03*
COC(=O)CNc1nc(-c2ccncc2)nc2ccccc12
 : 0.06	0.57
CC(C)N(c1ccccc1)c1ccc(NC(=O)CCl)cc1
 : 1.1	1.4
CCCn1c(=S)[nH]c2cc(C(=O)N3CCN(C4CCCCC4)CC3)ccc2c1=O
 : 0.86	0.02
COc1cc(/C=N/NC(=O)c2cc(C3CC3)[nH]n2)cc(OC)c1OC
 : 0.92	1.7
COc1ccc(/C=N\NC(=O)c2ccccc2F)cc1COc1ccc(F)cc1F
 : 0.64	-0.39
COc1cc(OC)cc(-c2nnc(N(C)C(=O)c3ccncc3)s2)c1
 : 1.5	-0.97
Cc1ccc(C(=O)CCC(=O)NN2C(=O)NC3(CCCCC3)C2=O)cc1
 : 0.59	0.42
O=c1c2c(C(F)(F)F)cc(C(F)(F)F)nc2[nH]n1-c1ccccc1
 : 1	-0.98
CCN1CCN(C(=O)C2CCN(Cc3cc(Cl)ccc3O)CC2)CC1
 : 0.66	-0.5
FC(F)(F)C1=CC(c2ccccc2)=NCCN1
 : 0.14	0.2
COc1ccc2oc(C(=O)OCC(=O)Nc3cc(S(=O)(=O)N4CCOCC4)ccc3OC)c(C)c2c1
 : 2.2	-1.9
COC(=O)CC1C(=O)NCCN1C(=O)Nc1cccc(Cl)c1 (stereo not given)
 : 1.5	-0.76
CCOC(=O)c1cccnc1SCC(=O)NCc1ccccc1
 : 0.08	-5.6
Cn1c(SCc2n[nH]c(=S)o2)nnc1-c1ccccc1
 : 1.2	-0.03
Cn1c(=O)n(Cc2ccc(Cl)cc2)c(=O)c2c1nc1n2CCN1Cc1ccco1
 : 0.74	0.74
Cc1cc(C)c(S(=O)(=O)/N=C2\C=C(Nc3ccc(C(=O)O)cc3)C(=O)c3ccccc32)c(C)c1
 : 7.9*	-1.7*
NC(=O)C1CCN(C(=O)c2ccc3ccccc3c2)CC1
 : 0.57	0.03
CN(CC(=O)NCc1ccc(F)cc1)S(=O)(=O)c1ccc(Br)s1
 : 2.1	-0.7
CCC(=O)c1ccc(N2CCOCC2)c(F)c1
 : 1.6	0.38
Cc1ncsc1C(=O)N1CCCC(C(=O)c2ccc3ccccc3c2)C1 (stereo not given)
 : 0.95	-0.18
Cc1ccc(CNc2nc3ccccc3n3cnnc23)cc1
 : 1.3	-0.92
CSc1nnc(C(C)(C)C)c(=O)n1/N=C/c1ccc(C(C)C)cc1
 : 0.41	0.59
CC(C)c1ccc2occ(-c3nn[nH]n3)c(=O)c2c1
 : 0.2	0.11
C1=CC2CC1CC2CN1CCN(Cc2ccccc2)CC1 (stereo not given)
 : 0.8	2.4
O=C(COc1ccc([N+](=O)[O-])cc1)Nc1ccc(C(=O)NCc2cccnc2)cc1
 : 0.03	-0.54
CCN(CC)CCNC(=O)c1cn(CC)c2ccc(S(=O)(=O)N3CCc4ccccc4C3)cc2c1=O
 : 0.14	0.78
Nc1cccc(S(=O)(=O)c2ccc(N)c(N)c2)c1
 : 0.35	-0.14
COc1ccccc1NC(=S)N(Cc1ccc(C(=O)O)cc1)Cc1ccc(OC)c(OC)c1
 : 1.4	-0.7
CC1=C(C#N)C(NC(=O)c2ccc(Cl)cc2)(C(F)(F)F)C(=O)N1 (stereo not given)
 : 1.2	-0.77

# Second line of a record – KCNQ2 enhance	KCNQ2 enhance baseline
O=C(CN1CCN(c2ccc(F)cc2)CC1)Nc1cccnc1Cl
 : 0.76	-1.4
COc1cccc(CN2CC(C(=O)NCc3ncc(C)[nH]3)CCC2=O)c1 (stereo not given)
 : 1.6	-1.1
CCOC(=O)/C(C)=N/NC(=O)c1ccc([N+](=O)[O-])cc1
 : 5.1	-1
O=C(COc1ccc(-c2ccccc2)cc1)NNC(=O)NC1CCCCC1
 : 1.2	-1.3
Cc1ccc(-n2ncc(-c3nnc(SCC(=O)NC4CCCC4)o3)c2N)cc1C
 : 0.43	-0.68
Cc1nn(CC(=O)NCc2ccccn2)c(C)c1[N+](=O)[O-]
 : 0.19	1.4
COc1ccccc1-n1ccnc(SCC(=O)NC2CCCCC2)c1=O
 : 1.4	-1.5
O=C(CNc1cccc(S(=O)(=O)N2CCCCC2)c1)Nc1cccc(F)c1
 : 2	1.7
Cc1c(C(=O)Oc2ccc(Cl)cc2)n(C)oc1=O
 : 1.3	0.05
COc1c(Cl)cc(C(=O)Nc2ccc(Cl)cn2)cc1Cl
 : 0.42	2.2
CC1CCc2nc3ccccc3c(C(=O)OCC(=O)N3CCc4ccccc43)c2C1 (stereo not given)
 : 0.26	-0.74
CC/C(=N\NC(=O)c1c[nH]c2ccccc12)c1cccs1
 : 0.76	0.06
C#CCNC(=O)C1=C[C@@H](c2ccccc2)C[C@@H](OCCCCO)O1
 : 0.26	-0.72
CCn1c(Cc2ccccc2)nnc1SCC(=O)Nc1nccs1
 : 1.2	-0.96
O=C(CSc1nc2cc3ccccc3cc2[nH]1)Nc1ccc(F)cc1
 : 0.18	-2
CC(C)(C)NC(=O)CN(C(=O)c1csnn1)c1cccc2c1CCCC2
 : 1.1	2.8
Cc1cccc(-c2noc(CCC(=O)NCC3CCCO3)n2)c1 (stereo not given)
 : 0.2	0.46
CC1CCCC(C)N1C(=O)CSc1nnc(COc2cccc3cccnc23)o1 (stereo not given)
 : 0.46	0.79
Cc1cc(NC(=O)/C=C/c2ccccc2Cl)no1
 : 1.1	1.2
Cc1ccccc1NC(=O)Cc1ccccc1
 : 1.1	-1.8
NCCc1nnc(SCc2ccccc2F)o1
 : 0.4	0.19
CC(C)(C)NC(=O)CSc1ncnc2c1nnn2Cc1ccccc1Cl
 : 0.01	0.82
O=C(O)c1cccnc1SCC(=O)C12CC3CC(CC(C3)C1)C2
 : 0.56	1.3
Cc1n[nH]c(C)c1CCCCOc1ccccc1
 : 0.6	0.8
COCCN(C(=O)c1csnn1)C(C(=O)NC1CCCCC1)c1ccccc1F (stereo not given)
 : 0.79	-4
COc1ccc(C)cc1NC(=O)c1nn(C)cc1Br
 : 0.23	1.8
CC(=O)Nc1cccc(NC(=O)CCN2C(=O)c3ccccc3S2(=O)=O)c1
 : 0.55	-1.7
CN1CCN(CC(=O)Nc2sc3c(c2C(=O)Nc2ccccc2)CCCC3)CC1
 : 0.07	-0.2
COc1ccc(-c2cc3ccccc3n2CC(O)CN2CCC(C)CC2)cc1 (stereo not given)
 : 0.91	-0.39
COc1ccc(C2CC(c3cccs3)=NN2C(=O)c2ccc(Br)o2)cc1 (stereo not given)
 : 0.12	-0.56

compound | KCNQ2 enhance | KCNQ2 enhance baseline
O=c1c(Cc2ccccc2)c(O)c2cccc3c4c(n1c23)CCCC4 | 5.1 | -2
O=C(CCCCCn1c(=S)[nH]c2ccc(N3CCOCC3)cc2c1=O)NCc1ccccc1Cl | 0.34 | 0.27
CCCCN(C(=O)COc1ccc(NC(C)=O)cc1)C1CCS(=O)(=O)C1 (stereo not given) | 0.27 | 1.6
O=C(NCc1cccnc1)C1CCN(C(=O)c2ccc(Cl)cc2Cl)CC1 | 0.96 | -0.04
Cc1cc(=O)oc2c1ccc1oc(/C(=N/O)c3ccccc3)c(C)c12 | 1.1 | 0.35
O=C(Nc1cc2c3c(c1)CC(=O)N3CCC2)c1ccccc1F | 0.35 | 0.94
CCN(CC(=O)NCc1ccc(Cl)cc1)S(=O)(=O)c1ccc(NC(C)=O)cc1 | 1.2 | -0.67
N#Cc1ccccc1Cn1c(=O)n(-c2ccc(CC(=O)NCc3ccco3)cc2)c(=O)c2sccc21 | 0.35 | 0
CSCC[C@H](NC(=O)CCn1nnc2ccccc2c1=O)C(=O)O | 0.36 | 0.26
Cc1cc(C)n2nc(SC(C)C(=O)NC3CCCCC3C)nc2n1 (stereo not given) | 0.88 | -0.02
CCOC(=O)c1ccc(CSc2ncn[nH]2)o1 | 0.6 | 0.36
CC(=O)c1cnc2cc(-c3ccc(Cl)cc3)nn2c1C | 2.5 | 0.18
CN(C)c1ccc(C(=O)OCC(=O)c2cccs2)cc1 | 0.33 | 1.4
CCOC(=O)N1CCN(C(=O)CSCC(=O)Nc2nc(-c3ccccc3)cs2)CC1 | 0.08 | 0
O=[N+]([O-])c1ccc2nc(SCc3cn4cc(Cl)ccc4n3)[nH]c2c1 | 0.02 | 0.18

compound | KCNQ2 enhance | KCNQ2 enhance baseline
COc1cc(C(=O)Oc2ccccc2N)cc(OC)c1OC | 0.71 | 0.31
NC(=O)c1ccc(-n2nnnc2SCC(=O)NC2CCCCC2)cc1 | 0.68 | 0.12
Cc1csc(NC(=O)Cc2ccccc2[N+](=O)[O-])n1 | 0.58 | -0.61
Cc1ccc(NC(=O)CSc2ncc3ccccn23)cc1C | 0.34 | -0.26
Cc1cc(S(=O)(=O)N2CCOCC2)ccc1OCC(=O)N1CCCC1 | 0.29 | -1.1
FC(F)(F)c1nc(N2CCN(c3ccccc3)CC2)nc2c1CCCCC2 | 0.8 | -0.61
O=C(Nc1cc([N+](=O)[O-])ccc1O)c1cccc(C(=O)Nc2cc([N+](=O)[O-])ccc2O)c1 | 0.63 | -0.44
Cc1cc(C)cc(OCc2nc(-c3cccnc3)no2)c1 | 0.57 | 0.65
CNC(=O)N1c2ccccc2CCc2ccccc21 | 0.72 | -1.6
COc1ccccc1C(=O)NC(CCSC)C(=O)NCC(c1cccs1)N(C)C (stereo not given) | 0.61 | 0.43
O=C(NC1CC1)C1CCN(Cc2cnn(-c3ccccc3)c2-n2cccc2)CC1 | 0.3 | 0.82
COc1ccc(COC(=O)Nc2cc3c(C(F)(F)F)nn(C)c3s2)cc1 | 0.38 | -0.04
Cc1cc(F)ccc1S(=O)(=O)Nc1ncnc2scc(-c3ccc(F)cc3)c12 | 1.3 | -0.18
O=C(NCN1C(=O)C2C3C=CC(C3)C2C1=O)Nc1ccccn1 (stereo not given) | 0.25 | 1.4

# Assay outcomes: PubChem, Johns Hopkins Ion Channel Center

# Some of the compounds tested. The share of hits here may be higher or lower than overall.
